CSC inhib: cancer stem cell viability inhibitors, primary screen, luminescence | cancer stem cell-like cells viability | inhibition, % at 7.5 µM | hit rate 1.1% among 300,000 | AID 2717, 2010;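 active means mean at 75% or more and at least half the replicates too; tested in HMLE shEcad cells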;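 further: 0% = median of negative and 100% = median of positive control wells; the first replicate is given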
UUG fidelity: modulators of yeast start codon fidelity, primary screen, whole organism, S. cerevisiae, single point, plate reader; S. cerevisiae UUG-firefly luciferase reporter, luminescence/redox ratio; activity score, % at 18.7 µM; hit rate 0.13% among 350,000; AID 602363, 2012;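 active means replicate mean at a twofold rise or more, about +100% in these data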;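 further: firefly luciferase made from a UUG start codon reports start codon fidelity; reporter light over untreated wells divided by growth signal over untreated wells; some hits fall short of that in this replicate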
eIF4H inh: human eIF4H binding inhibitors, primary screen, translation initiation inhibitor project, biochemical, uHTS, fluorescence polarization | inhibition, % at 35 µM | Eukaryotic translation initiation factor 4H (Homo sapiens), Q15056 | hit rate 0.94% among 290,000 | eIF4H fluorescence polarization binding assay | AID 2012, 2009;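 active means 50% or more with normal probe brightness, or confirmed in later tests; about a fifth of its hits are not listed in these tables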;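 further: calls also rest on retests at 20 µM and on dose response follow-up; 0% = protein and probe with vehicle and 100% = probe without protein; strong numbers were not always called active; many hits fall short of the cut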
PABP FP inh: PABP poly(A) RNA binding inhibitors, primary screen, biochemical, fluorescence polarization, uHTS. hit rate 1% among 290,000. AID 2014, 2009. inhibition, % at 35 µM. Polyadenylate-binding protein 1 (Homo sapiens), P11940;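 active means 50% or more with normal probe brightness, or confirmed in later tests; about a fifth of its hits are not listed in these tables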;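 further: calls also rest on retests at 20 µM and on dose response follow-up; controls were probe without protein and protein plus probe with vehicle; some compounds called inactive have numbers as strong as hits; many hits fall short of the cut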
Env fusion inh: inhibitors of HIV-1 Env-driven cell-cell fusion, primary screen, HeLa-JRFL effector, CEM21 target cells, luciferase; inhibition, % at 12.3 µM; hit rate 1.1% among 360,000; AID 651610, 2012;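 active means mean replicate inhibition score of at least 50 and every replicate individually at or above 50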;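 further: 0% = plate neutral controls and 100% = maraviroc near 300 nM; one replicate is shown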
MT1-MMP act inh: blockers of MT1-MMP proenzyme processing, primary screen, HT1080 RFP-PRO-GFP cells, GFP/RFP fluorescence | GFP/RFP ratio fluorescence, overnight; percent of plate control window, DMSO zero | GFP/RFP ratio change, % at 20 µM | hit rate 0.061% among 360,000;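 active means GFP/RFP ratio change of at least 30% with cell ATP level not reduced by more than half and red fluorescence within 50% of control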; further: strong numbers were not always called active
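Assay system: HT1080 RFP-PRO-GFP cells | Dosing: 20 µM single dose, 1% DMSO | Incubation: Cells overnight before dosing, compound overnight, 37 °C, 5% CO2 | Evaluation: GFP/RFP fluorescence ratio | Control set: DMSO-only wells and HT1080 RFP-L50D-GFP cell wells as references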
Rce1 inh: yeast Rce1p protease inhibitors, primary screen, biochemical, fluorescence, cell-free homogeneous; CAAX prenyl protease 2 (Saccharomyces cerevisiae (strain ATCC 204508 / S288c)), Q03530; AID 2563, 2010; yeast membranes, quenched prenylated peptide cleavage fluorescence; hit rate 0.27% among 290,000; calls only;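 active means fall in fluorescence gain of 50% or more versus controls, with final raw signal at or below 3038400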;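 further: plate controls were neutral control wells for no effect and wells lacking membranes for full effect; tested at 10 µM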
Target sequence (Q03530 whole entry, looked up): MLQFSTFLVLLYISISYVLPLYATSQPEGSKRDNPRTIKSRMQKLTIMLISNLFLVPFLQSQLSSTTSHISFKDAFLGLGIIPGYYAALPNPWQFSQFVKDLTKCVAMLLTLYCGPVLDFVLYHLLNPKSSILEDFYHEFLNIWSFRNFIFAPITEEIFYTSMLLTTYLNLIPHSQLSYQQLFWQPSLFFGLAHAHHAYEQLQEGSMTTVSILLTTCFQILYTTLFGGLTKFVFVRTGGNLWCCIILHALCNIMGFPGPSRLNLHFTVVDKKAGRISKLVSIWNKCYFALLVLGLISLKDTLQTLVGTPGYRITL
eIF4H inh retest: second read-out of eIF4H inh, no call of its own (marks repeat the call); inhibition, %; compound at 20 µM; confirmation average;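 mean of two retest wells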
PABP FP inh retest: second read-out of PABP FP inh, no call of its own (marks repeat the call); inhibition, %; compound at 20 µM; confirmation repeats;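 mean of two retest wells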
MT1-MMP act inh RFP: also measured in MT1-MMP act inh; calls as there; RFP signal change, %; measured here: RFP expression control read;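 0 = vehicle wells; hits needed this value within 50% of zero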
An asterisk follows results filed as active; i = inactive; . = no result given. This is a subset, so the mix of outcomes need not match the whole.

SMILES | CSC inhib | UUG fidelity | eIF4H inh | PABP FP inh | Env fusion inh | MT1-MMP act inh | MT1-MMP act inh RFP | Rce1 inh | others
CCOC(=O)c1cc(-c2ccc(OC)cc2)nc2c1c(C)nn2CCC#N | -4.7 | -7.2 | -0.8 | 6.1 | -78.5 | -0.2 | -4.8 | i
CC1=CC(C)[C@H](/C=N/n2c(=O)[nH]c3c([nH]c4ccc(C)cc43)c2=O)C(C)C1 (stereo partly specified) | 87.3* | . | -7.0 | 5.0 | -1.7 | -1.0 | -4.1 | i
CCOc1cc(C(=O)Nc2cc(F)ccc2C)ccc1OCC(=O)N1CCOCC1 | . | -19.3 | . | . | 19.4 | -0.5 | 1.7 | .
O=C(NCC(F)(F)F)N1CCOCC1 | . | -9.3 | -6.1 | 1.6 | . | 1.4 | 4.6 | i
COc1ccc(/C(O)=C2\C(=O)C(=O)N(c3cc(C)on3)C2c2ccccc2OC)cc1C (stereo unspecified) | -1.2 | -19.9 | -5.7 | 9.5 | -21.6 | -1.1 | 3.8 | i
COc1cc(OC)cc(C(=O)N[C@H](C(=O)OCC(=O)c2ccc(F)cc2)C(C)C)c1 | 6.2 | -8.7 | -3.5 | -5.3 | -17.8 | -6.8 | -8.2 | i
COc1cccc(C(=O)OC(C)CN2CCCC2)c1 (stereo unspecified) | -5.8 | -17.3 | 7.6 | 14.1 | . | 0.2 | 5.8 | i
CCC(=O)Nc1nnc(SCc2ccccc2F)s1 | . | . | 1.7 | -6.6 | 3.8 | 6.1 | 4.6 | i
O=C(Cc1nc(-c2ccc([N+](=O)[O-])cc2)cs1)Nc1ccccc1 | 3.3 | . | -2.6 | 3.5 | . | 1.7 | -10.8 | i
Cc1cc(C)cc(N(C(C)C(=O)Nc2c(C)n(C)n(-c3ccccc3)c2=O)S(C)(=O)=O)c1 (stereo unspecified) | -4.0 | -13.4 | -17.2 | 7.0 | . | 3.4 | 6.2 | i
Oc1c(C=NCc2ccccc2)sc2ccccc12 | -1.0 | . | 1.9 | -3.8 | -16.4 | -1.3 | 2.7 | i
O=C(CN1CCN(c2ccccc2)CC1)Nc1ccccc1C(=O)NCCc1ccccc1 | . | -6.3 | . | . | -3.7 | 0.0 | -2.0 | .
Cc1cc(C(=O)N2CCN(S(=O)(=O)c3ccccc3F)CC2)c(C)o1 | -1.4 | . | -5.0 | 14.9 | -9.3 | -0.9 | 2.0 | .
COc1ccc(CC(=O)Nc2ccc(S(=O)(=O)Nc3nccc(C)n3)cc2)cc1 | -32.4 | 2.9 | -3.1 | -1.4 | . | -3.3 | -2.8 | i
COc1ccc(C(=O)N2CCc3cc(OC)c(OC)cc3C2)cc1OC | -0.2 | 5.4 | -3.4 | -2.4 | 26.9 | 8.4 | -2.2 | i
Cc1cc2c(N)cccc2nn1 | -4.2 | -16.5 | 96.2* | 87.5* | 19.9 | 17.7 | 2.1 | i
CCOc1ccc(CN(C)C(=O)CCNC(=O)c2ccco2)cc1 | -4.5 | -8.0 | . | . | -7.9 | -0.8 | 0.1 | .
Cc1nn(CC(C)C)c(Cl)c1C(=O)N(c1ccc(Cl)cc1F)S(C)(=O)=O | 8.0 | 8.1 | -1.8 | 13.4 | 2.5 | -11.4 | -1.6 | i
Cc1[nH]c2ccccc2c1C(=O)C(C)OC(=O)c1ccc(NC(=O)CC#N)cc1 (stereo unspecified) | -7.4 | . | . | . | -16.3 | -5.1 | -6.0 | i
COc1cc(/C=N/NC(=O)CCC(=O)Nc2ccc(C)cc2)ccc1O | -13.2 | . | -1.7 | 0.3 | -17.9 | 1.4 | 3.8 | i
CC(=O)c1c(COC(=O)c2cccc(C)c2)nc2ccccc2[n+]1[O-] | -11.9 | . | -6.5 | 4.7 | -7.7 | -3.5 | -3.8 | i
Fc1ccccc1CSc1ncnc2c1oc1ccccc12 | 2.6 | -11.3 | 13.0 | -2.6 | 28.7 | -0.7 | -2.6 | i
C=CCn1c(SCC(=O)N2CCc3ccccc3C2)nc2ccccc2c1=O | 19.1 | . | -2.7 | -1.5 | . | -0.7 | -5.1 | i
O=C(NCCCN1CCCC1=O)c1cc(=O)c2ccccc2o1 | -15.8 | . | 2.8 | 1.1 | . | -4.5 | 1.4 | i
Cc1cccc2c(CC(=O)Nc3ccccc3)noc12 | -3.9 | -9.6 | -3.3 | 7.9 | 12.5 | 0.5 | 2.8 | i
CCCOc1ccc(-c2nnc(-c3cccs3)o2)cc1 | -0.4 | -21.5 | -0.8 | 1.1 | . | 2.7 | -6.0 | i
CCOc1cc(C2NC(=O)CCC2[N+](=O)[O-])cc(Br)c1OC (stereo unspecified) | -4.8 | -3.0 | -8.4 | -3.2 | -10.3 | 1.5 | 5.1 | i
O=C(CN1C(=O)S/C(=C\c2ccccc2)C1=O)Nc1cc([N+](=O)[O-])ccc1O | 3.1 | -2.9 | -2.3 | 5.3 | 11.1 | 8.4 | -2.5 | i
Cc1cc(-c2nc(C)c(C(=O)NNC(=O)NC(C)C)s2)no1 | 20.4 | . | -9.2 | 11.6 | 4.1 | 2.9 | 1.0 | i
Cc1c(-c2ccccc2)nc2ccccc2c1C(=O)Nc1ccncc1 | -6.7 | -23.3 | -4.3 | 6.3 | 10.8 | -3.8 | -4.2 | i

Already shown: 3 of the compounds above.
SMILES | CSC inhib | UUG fidelity | eIF4H inh | PABP FP inh | Env fusion inh | MT1-MMP act inh | MT1-MMP act inh RFP | Rce1 inh | others
C=CCn1c(SCC(=O)N2CCc3ccccc3C2)nc2ccccc2c1=O | 19.1 | . | -2.7 | -1.5 | . | -0.7 | -5.1 | i
O=C(NCCCN1CCCC1=O)c1cc(=O)c2ccccc2o1 | -15.8 | . | 2.8 | 1.1 | . | -4.5 | 1.4 | i
Cc1cccc2c(CC(=O)Nc3ccccc3)noc12 | -3.9 | -9.6 | -3.3 | 7.9 | 12.5 | 0.5 | 2.8 | i

(listing goes on)
SMILES | CSC inhib | UUG fidelity | eIF4H inh | PABP FP inh | Env fusion inh | MT1-MMP act inh | MT1-MMP act inh RFP | Rce1 inh | others
O=C(COC(=O)CCc1nc2ccccc2n1-c1ccccc1)Nc1ccc(N2CCCCC2)cc1 | -1.6 | 2.8 | -4.4 | -14.5 | . | 5.1 | 2.1 | i
COc1ccc(-c2cc(C(=O)Nc3cccc(C(C)=O)c3)no2)cc1 | . | 7.6 | 0.3 | 1.0 | -35.9 | 24.8 | 3.9 | i
O=C(COC(=O)c1ccc(S(=O)(=O)N2CCCC2)cc1)Nc1cccc(Cl)c1 | 9.8 | -11.5 | . | . | 6.2 | 3.0 | 4.5 | .
CCc1cc(-c2n[nH]c(C)c2Oc2ccc(C(C)C)cc2)c(O)cc1O | 113.0* | -16.3 | -2.1 | -3.8 | -31.7 | 8.0 | -5.1 | i
CCCS(=O)(=O)N1CCCC(C(=O)N2CCN(c3ccccn3)CC2)C1 (stereo unspecified) | -15.3 | -17.9 | -0.3 | 5.8 | . | 2.5 | 5.0 | i
COc1ccccc1C(=O)Nc1ccc(S(=O)(=O)N2CCCCC2)cc1 | 1.0 | -1.0 | -3.8 | 1.0 | 7.6 | 1.2 | -3.9 | i
CCOc1ccccc1C(=O)Nc1nn[nH]n1 | 2.1 | . | -0.1 | 13.2 | 1.1 | 0.4 | -0.3 | i
COC(=O)c1c(N)c(C#N)c2n1CCCCC2 | -5.6 | -37.9 | 3.1 | 3.0 | 6.9 | -2.5 | -2.3 | i
COc1cccc(/C=N/NC(=O)CCCC(=O)Nc2ccc(Br)cc2)c1 | 2.9 | 3.8 | 4.9 | -9.7 | 3.4 | 2.8 | -8.0 | i
CC1(C)Cc2c(sc3ncn4nc(CCC(=O)O)c(=O)nc4c23)CO1 | -4.7 | -4.3 | 0.4 | 3.4 | 29.3 | 9.7 | 6.2 | i
O=C1N[C@@H](c2ccccc2)COC(=O)[C@H](Cc2ccc(F)cc2)CC/C=C/C[C@H]1CC(=O)N(CCO)Cc1ccccc1 | 13.8 | 0.9 | . | . | -134.0 | -7.6 | -14.0 | .
CCCCCc1nc2ccccc2c(=O)n1N | -11.4 | -6.9 | 1.2 | -2.3 | . | -3.5 | 2.2 | i
CCOC(=O)CN(C(=O)COc1nc(-c2ccccc2)cc(C)c1C#N)c1ccccc1C | 21.5 | -21.4 | -8.1 | 16.3 | 21.4 | -15.2 | -17.8 | i
NS(=O)(=O)c1ccc(CNC(=O)c2ccc(NS(=O)(=O)c3ccc4[nH]c(=O)[nH]c4c3)cc2)cc1 | -2.0 | -17.7 | . | . | . | 0.1 | 3.8 | i
O=C1CN(C(=O)/C=C/c2ccccc2)CCN1 | -3.8 | -9.8 | -7.8 | -0.2 | 9.6 | 6.7 | 4.5 | i
C/C(=C\C(=O)c1ccc(C)cc1)Nc1cccc(O)c1 | 8.4 | -17.6 | 2.6 | 0.9 | . | 3.9 | -0.4 | i
CCN(CC)S(=O)(=O)N1CCN(S(=O)(=O)N2CCOCC2)CC1 | -1.2 | . | 8.5 | 2.7 | -11.3 | 0.3 | 3.9 | i
Cc1noc(C)c1S(=O)(=O)Nc1ccc2c(c1)C(=O)N([C@H](C)CO)C[C@H](C)[C@@H](CN(C)C(=O)CCCN(C)C)OCCCC[C@@H](C)O2 | . | 10.4 | . | . | 25.1 | 3.5 | 3.0 | .
O=C(CCc1nnc2ccc(NCc3ccco3)nn12)N1CCN(c2ccccc2)CC1 | -22.3 | -9.6 | 40.3 | 21.8 | 3.5 | -0.9 | -1.4 | i
COCCN1C=C2C(=O)C(C)(OC(=O)c3cccs3)C(=O)C=C2C=C1CCCC(=O)OC (stereo unspecified) | -0.8 | -14.1 | 64.2 | 27.4 | -4.4 | -0.4 | 6.0 | i | eIF4H inh retest=12.2;PABP FP inh retest=39.6
CCCCOc1ccc(CSCCN)cc1Cl | 13.8 | -15.4 | 5.4 | -6.3 | 9.7 | 0.1 | 0.3 | i
CC(C)CCNC(=O)C(c1ccco1)N(Cc1ccc(F)cc1)C(=O)c1snc(C(N)=O)c1N (stereo unspecified) | -4.0 | 16.2 | 3.4 | 10.6 | 27.9 | -0.3 | -6.5 | i
Cc1ccc(-n2nnc(-c3cnc4ccccc4c3)n2)cc1 | -11.4 | -26.3 | -8.4 | -0.2 | -44.0 | -2.1 | 5.1 | i
Cc1ccccc1NC(=O)CSc1nc(N)c(C#N)cc1C#N | -9.1 | -10.1 | -3.0 | 0.1 | -43.5 | -7.3 | -3.7 | i
Cc1nn(C)cc1S(=O)(=O)N1CCN(Cc2ccc(F)cc2Cl)CC1 | -18.9 | . | -8.5 | 0.9 | 12.9 | 0.4 | 6.1 | i
CCCCN(Cc1ccccc1)C(=O)C1CCN(S(=O)(=O)c2c(C)noc2C)CC1 | . | -4.1 | -10.5 | -7.3 | . | -3.7 | -2.0 | i
COc1ccc(CNC(=O)CCNS(=O)(=O)c2ccc(Br)s2)cc1 | 9.9 | -4.1 | -0.1 | 13.4 | -4.7 | -0.7 | 0.6 | i
CC(=O)Nc1ccc(OCC(O)CN2C(C)(C)CC(O)CC2(C)C)cc1 (stereo unspecified) | -15.3 | . | 12.7 | 7.4 | -22.7 | 3.5 | 3.4 | i

Compound activity as filed in PubChem BioAssay.
